From PubChem
FGF22 binding: FGF22 (human) thermal shift binding. recombinant FGF22 thermal shift, SYPRO orange fluorescence; percent of sucrose octasulfate shift, DMSO zero. calls only at 9.99 µM. 340,000 compounds, 1.5% hits. AID 651658;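 active = melting point raised past a set limit in the mean and every replicate; three in four hits are not shown here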
Target sequence (Q9HCT0 whole entry, looked up): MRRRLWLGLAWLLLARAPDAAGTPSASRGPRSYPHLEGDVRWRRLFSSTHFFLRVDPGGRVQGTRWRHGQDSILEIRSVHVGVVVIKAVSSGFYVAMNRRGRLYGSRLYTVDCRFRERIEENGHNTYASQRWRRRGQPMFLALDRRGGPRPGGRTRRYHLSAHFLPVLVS
Vif A3G: inhibitors of Vif binding to APOBEC3G peptide, primary screen, biochemical, TR-FRET, GST-Vif 1-94, biotin-A3G peptide, dose response retest (AID 1117319); inhibition, %; hits with a dose series show IC50 in µM; 260,000 compounds, 0.57% hits; TR-FRET GST-Vif / biotin-A3G peptide binding; higher % means a stronger effect; test concentration not given here; strong numbers were not always called active;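 active = above the screen mean plus three standard deviations and confirmed in dose response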;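 also: Vif residues 1-94 fused to GST binding biotinylated APOBEC3G peptide 110-148; 0% = full assay without inhibitor and 100% = GST in place of GST-Vif; retest series ran down from 100 µM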
HNF4A DNA FP: change in binding of human HNF4 alpha to DNA. HNF4a-FITC DNA binding, fluorescence polarization, 1 h. AID 1224865. activity change, % at 10 µM. 360,000 compounds, 0.3% hits; in the data active = activity change above about 30%, passing the limit was not always enough;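 also: controls were the assay level and a saturating level of protein; the project sought stronger binding though the title names inhibitors; some compounds called inactive have numbers as strong as hits; positive values seem to mean higher polarization but the record does not say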
rRNA inh HTS: inhibits bacterial ribosomal RNA function over humanized ribosomes. E. coli WT GFP vs humanized-ribosome RFP mutants, fluorescence, 24 h; hits give low values; DMSO median 0, no signal -100. GFP signal change (wild-type ribosome), % (concentration not given with the values). 350,000 compounds, 1.6% hits;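 active = significant combined selectivity score with lowered wild-type GFP, culture density cut under 30%, mutant RFP and density less affected; inactive = any of these conditions unmet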; also: one replicate is shown; some compounds called inactive have numbers as strong as hits
ALR inh: blocks human ALR sulfhydryl oxidase activity; P55789; purified ALR, DTT oxidation, H2O2 HRP-luminol luminescence; inhibition, % (test concentration not listed); 290,000 compounds, 3.8% hits;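 active = mean and each replicate at 75% or more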;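 also: stock transfer was 7.5 nL into about 7.5 µL; 0% = neutral wells and 100% = wells with inactivated enzyme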
Target sequence (P55789 whole entry, looked up): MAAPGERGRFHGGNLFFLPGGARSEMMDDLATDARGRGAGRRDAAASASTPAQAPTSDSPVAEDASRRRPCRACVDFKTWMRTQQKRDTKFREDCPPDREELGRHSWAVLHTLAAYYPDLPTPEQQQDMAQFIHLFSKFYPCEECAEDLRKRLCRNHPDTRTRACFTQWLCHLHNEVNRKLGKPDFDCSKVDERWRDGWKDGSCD
AF4-AF9 inh: blocks AF4 peptide binding to human AF9 | P42568 | AlphaScreen, biotin-AF4 peptide binding to FLAG-AF9 | inhibition, % at 10 µM | 350,000 compounds, 0.47% hits;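 active = every replicate reaching a set inhibition limit, whatever the replicate mean, cut at about 25% in these data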;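 also: 0% = plate neutral control median and 100% = total signal loss; the record names both 10 and 1 µM as test concentration; the first replicate is given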
Target sequence (P42568 whole entry, looked up): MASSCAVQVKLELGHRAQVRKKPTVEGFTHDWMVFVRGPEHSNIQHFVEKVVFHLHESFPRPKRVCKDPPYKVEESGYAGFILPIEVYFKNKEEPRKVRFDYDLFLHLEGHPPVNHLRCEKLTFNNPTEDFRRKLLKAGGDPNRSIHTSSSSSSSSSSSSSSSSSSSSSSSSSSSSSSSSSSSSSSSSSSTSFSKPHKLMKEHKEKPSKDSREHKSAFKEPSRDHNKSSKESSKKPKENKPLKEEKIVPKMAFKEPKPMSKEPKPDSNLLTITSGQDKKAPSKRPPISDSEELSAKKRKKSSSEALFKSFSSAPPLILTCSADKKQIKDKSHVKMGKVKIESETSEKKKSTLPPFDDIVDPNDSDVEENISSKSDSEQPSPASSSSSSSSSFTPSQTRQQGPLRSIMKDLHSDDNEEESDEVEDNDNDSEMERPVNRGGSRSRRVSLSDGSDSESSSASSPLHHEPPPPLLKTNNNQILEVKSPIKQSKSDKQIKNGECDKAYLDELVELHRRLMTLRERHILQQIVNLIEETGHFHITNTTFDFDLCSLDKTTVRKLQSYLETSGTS
E coli growth: inhibitors of Escherichia coli growth. OD600, 23 h; hits give low values. OD600 absorbance (no concentration beside the values). 330,000 compounds, 0.21% hits. AID 1053175;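 active = OD600 absorbance below the run mean of sample wells minus 3.6 SD, in any replicate, cut at about 0.56 in these data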;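 also: stock transfer was 300 nL into about 60 µL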
rRNA inh HTS OD600: also measured in rRNA inh HTS; calls as there; OD600 change, %; measured here: OD600 growth;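 optical density of the mix in the first replicate; 0 = DMSO median and -100 = no signal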
rRNA inh HTS RFP: second read-out of rRNA inh HTS, no call of its own (marks repeat the call); RFP signal change, %; measured here: RFP humanized mutant strains;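 first replicate; 0 = DMSO median and -100 = no signal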
Starred values were filed as active, the others as inactive; i = inactive; · = not tested or not shown; & = joins results of further samples. A portion of the library, so the mix of outcomes need not match the whole.

SMILES	FGF22 binding	Vif A3G	HNF4A DNA FP	rRNA inh HTS	rRNA inh HTS OD600	rRNA inh HTS RFP	ALR inh	AF4-AF9 inh	E coli growth
CC(C)CC#Cc1ccc2c(c1)O[C@@H](CN(C)C(=O)c1ccncc1)[C@@H](C)CN([C@@H](C)CO)S2(=O)=O	i	·	·	0.6	-13.6	15.4	·	2.2	·
COCCn1c(=O)sc2ccccc2c1=O	·	-0.4%	0.3	19.4	7.8	-1.1	-4.6	-0.7	0.64
C[C@@H]1CN([C@@H](C)CO)S(=O)(=O)c2ccc(C#CCN(C)C)cc2O[C@H]1CN(C)C(=O)Nc1ccccc1F	i	·	·	-2.4	-2.3	-4.0	·	0.7	·
Cc1onc(-c2ccccc2Cl)c1C(=O)O/N=C(\N)c1ccc([N+](=O)[O-])o1	i	-6.4%	2.0	-0.1	-1.8	-1.4	-68.2	·	·
COc1cccc(OCc2cc(C(=O)NCc3ccccn3)no2)c1	i	·	0.0	-5.4	-6.6	-0.6	-1.7	-2.2	0.662
O=C(COc1ccc(/C=N/NS(=O)(=O)c2ccccc2)cc1)Nc1ccccc1	i	4.4%	4.3	8.7	0.4	0.9	-29.2	-8.2	·
C[C@@H]1CCCCO[C@@H](CN(C)C(=O)CCCN(C)C)[C@H](C)CN([C@H](C)CO)C(=O)c2cc(NC(=O)CCCN(C)C)ccc2O1	i	·	·	1.0	9.2	-1.9	·	4.4	·
Cc1nnc(C)n1/N=C/c1cc(Br)ccc1O	·	2.3%	-3.7	·	·	·	4.8	·	·
CN1CCN(C(=O)c2ccc(-c3cc4nc(NCc5cccnc5)n(C)c(=O)c4s3)cc2)CC1	i	·	1.8	2.2	7.8	1.3	·	-4.3	·
CCOc1cc(NCc2ccccc2)c2ncn(C(C)C)c2c1	i	·	2.8	-55.8	-76.8	-23.3	68.5	21.8	0.647
CCOC(=O)c1cc(-c2ccccc2)sc1NC(=O)C(C)OC(=O)c1cccnc1Cl (configuration not stated)	·	-9.2%	-0.3	·	·	·	-15.4	·	0.732
CCCNC(=O)Nc1ccc2c(c1)C(=O)N(C)[C@H]1CC[C@H](CC(=O)Nc3cc(F)ccc3F)O[C@@H]1CO2	i	·	·	-5.1	-7.4	-0.7	·	-2.1	·
CC(C)Sc1nc2c(c(=O)n(C)c(=O)n2C)n1C	i	3.9%	-1.7	7.1	-6.8	0.7	-14.1	4.1	0.689
C[C@@H]1CN([C@H](C)CO)C(=O)c2c(c3ccccc3n2C)-c2ccccc2CO[C@@H]1CN(C)S(=O)(=O)c1cccc(F)c1	i	·	·	1.9	-2.8	-0.2	·	1.7	·
O=C(COC(=O)c1ccc([N+](=O)[O-])o1)Nc1cccc(S(=O)(=O)N2CCOCC2)c1	·	·	0.5	·	·	·	-20.1	·	0.623
COc1ccccc1-n1c([S-])c(C(=O)Nc2ccccc2C(F)(F)F)[n+]2ccc(C(=O)NCCO)cc12	i	1.2%	7.4	6.2	2.5	-0.3	-21.8	13.9	0.66
CCOC(=O)Cc1nnc(Nc2cc(C)ccc2C)c2ccccc12	i	2.3%	-0.3	0.1	-6.3	20.6	-10.2	-7.7	0.702
O=S(=O)(c1cc(Cl)ccc1Br)N1CCCCC1	·	1.7%	4.7	·	·	·	-6.4	·	0.689
O=C(COC(=O)c1cnccn1)Nc1cccc(F)c1	i	·	-1.8	4.5	15.7	4.2	-1.3	1.8	0.664
Cc1ccc(C)c(NS(=O)(=O)c2ccc(-n3cccn3)cc2)c1	i	5.5%	6.7	11.5	11.4	2.1	·	-1.8	·
CCCOc1ccc(N2C(=O)C3C(C(C)C)NC4(C(=O)c5ccccc5C4=O)C3C2=O)cc1 (configuration not stated)	·	0.7%	0.5	·	·	·	-16.1	·	0.698
CC(C)(C)C(=O)OC/C(N)=N/OC(=O)c1ccc(Cl)cc1	i	-2.2%	1.8	2.6	11.1	-2.5	5.5	-1.0	0.674
O=C(CN1CCOCC1)Nc1ccccc1C(=O)O	·	-2.9%	2.1	15.6	8.9	-0.7	-10.1	·	0.711
CC(=O)c1cccc(N(C(=O)c2csnn2)C(C(=O)NC2CCCC2)c2ccccc2)c1 (configuration not stated)	i	-15.6%	-1.0	1.1	7.2	-0.1	-6.3	2.0	0.581
COC(=O)c1ccc(CSc2nnnn2C)o1	·	22.1%	-0.2	·	·	·	-12.6	·	0.727
O=C(O)C1CCN1C1CCCCC1 (configuration not stated)	·	-3.6%	-1.1	·	·	·	2.2	·	0.696
O=C(c1cccc(S(=O)(=O)N2CCOCC2)c1)N1CCN(c2ccc(F)cc2)CC1	·	7.3%	-2.4	·	·	·	19.8	·	0.702
CCCCc1c(C)nc2ccccc2c1SCCC(=O)O	·	-9.2%	-2.1	-9.7	-9.7	-2.3	2.0	-1.5	0.666
C[C@H](CO)N1C[C@H](C)[C@@H](CN(C)C(=O)Nc2ccc(C(F)(F)F)cc2)Oc2ccc(NC(=O)NC3CCCCC3)cc2C1=O	i	1.9%	0.3	-1.5&-13.6	-5.0&-2.3	-0.5&-7.6	·	-0.7&0.9	0.69
O=C(O)c1ccc2c(c1)nnn2C1CCCCC1	·	24.7%	-0.9	·	·	·	-10.9	·	0.722
Cc1ncc([N+](=O)[O-])n1Cc1cccc2ccccc12	·	·	0.0	·	·	·	-11.8	·	0.686
C[C@@H]1CCCCO[C@H](CN(C)C(=O)c2ccccc2)[C@@H](C)CN([C@@H](C)CO)C(=O)c2cc(NS(=O)(=O)c3cccs3)ccc2O1	i	·	·	0.8	-0.1	3.3	·	3.9	·
Cc1noc(C)c1S(=O)(=O)Nc1ccc2c(c1)C(=O)N([C@H](C)CO)C[C@@H](C)[C@H](CN(C)Cc1ccccc1)O2	i	·	·	2.0	4.4	-0.5	·	0.5	·
COc1ccc(C(=O)Nc2cccc(/C(C)=N/NC(=O)c3ccc([N+](=O)[O-])c(C)c3)c2)cc1OC	·	-7.5%	2.9	·	·	·	-4.2	·	·
CCCNC(=O)NC(C)C12CC3CC(CC(C3)C1)C2 (configuration not stated)	i	-8.1%	-3.4	-2.2	6.2	1.2	-0.1	4.0	0.69
O=C(NCC(c1ccco1)N1CCN(c2ccccc2F)CC1)C1CCCCC1 (configuration not stated)	i	-5.2%	2.2	-12.5	-26.0	-2.3	·	1.3	0.694
CCCC#Cc1cnc2c(c1)C(=O)N([C@@H](C)CO)C[C@H](C)[C@@H](CN(C)C(=O)c1ccc(F)cc1)O2	i	·	·	1.2	-9.5	1.8	·	1.1	·
Cc1ccc2c(c1)N(CC(=O)NCCCN1C(C)CCCC1C)C(=O)c1cccnc1O2 (configuration not stated)	i	-8.2%	-3.6	10.1	14.2	-0.5	-9.6	1.8	0.707
O=C(CCC(=O)Nc1ccccc1)NNC(=O)CCc1ccccc1	i	·	-0.7	15.5	22.7	3.0	-6.9	-2.4	0.69
CCOC(=O)N1CCC(NC(=O)C2CCC(Cn3c(=O)[nH]c4ccccc4c3=O)CC2)CC1 (configuration not stated)	·	·	-0.1	·	·	·	5.5	·	0.759
CC(C)(OC(=O)NC(=O)C(F)(F)F)C(C)(C)OC(=O)NC(=O)C(F)(F)F	i	13.9%	-3.7	11.6	6.9	3.5	-1.3	1.1	0.754
O=C(Cc1ccccc1)Nc1cc(C(=O)c2ccccc2)ccc1N1CCOCC1	·	2.3%	2.5	·	·	·	0.2	·	0.722
CN(C)S(=O)(=O)c1cccc(NC(=O)COC(=O)CCC(=O)c2ccc(F)cc2)c1	i	7.4%	1.5	-14.1	-15.2	0.8	-4.4	-0.5	0.701
CCOC(=O)c1cccc(NC(=O)/C=C/c2cccc([N+](=O)[O-])c2)c1	·	-3.0%	0.3	·	·	·	-77.4	·	0.75
CCc1ccc(CCC(=O)N2CCN(S(=O)(=O)c3ccc(Br)cc3)CC2)cc1	i	-4.3%	-0.7	-14.1	-21.4	-2.3	·	-0.4	·
CCC(C(=O)Nc1c(C)cc(C)cc1C)N1CCCCCC1 (configuration not stated)	i	8.0%	-5.0	0.5	-3.4	-1.7	-41.4	-6.2	0.687
CC1CCc2c(sc3ncnc(N4CCOCC4)c23)C1 (configuration not stated)	·	0.5%	-2.2	·	·	·	-1.2	·	0.655
O=C(NCc1ccccc1)c1cc(=O)nc2sc(-c3ccccc3)nn12	·	-1.9%	-0.9	·	·	·	·	·	0.646
CC1(C)CC(=O)c2cnn(-c3nc4ccccc4[nH]3)c2C1	·	6.1%	15.4	·	·	·	93.7*	·	0.674
CC(C)(C)C(=O)C(Cl)C(=O)Nc1ccccc1 (configuration not stated)	i	5.1%	1.8	-2.5	-5.5	-4.1	3.0	2.4	0.553
COc1cccc(C(=O)OCC(=O)c2c(N)n(C)c(=O)n(C)c2=O)c1	i	·	2.2	6.9	8.8	-1.8	-1.4	-7.8	0.692
C[C@H]1CN([C@@H](C)CO)C(=O)c2cc(NC(=O)Cn3cnnn3)ccc2O[C@@H]1CN(C)C(=O)Nc1ccc(F)cc1	i	·	·	7.7	7.9	-0.1	·	-2.5	·
c1ccc(Cc2nnc3sc(-c4ccc5c(c4)OCO5)nn23)cc1	·	-22.3%	0.6	·	·	·	-3.9	·	0.72
COc1ccc(C2C(C(C)=O)=C(O)C(=O)N2c2cccnc2)cc1OC (configuration not stated)	·	-4.2%	1.8	·	·	·	-36.5	·	0.697
COCC(=O)Nc1ccc2c(c1)C(=O)N(C)C[C@@H](OC)[C@H](C)CN(C(=O)CC1CC1)[C@@H](C)CO2	i	·	·	3.3	2.4	-0.8	·	-2.9	·
Cc1cc(OC(=O)c2ccc(C(F)(F)F)cc2)c([N+](=O)[O-])c(=O)[nH]1	i	·	0.9	5.0	5.6	1.8	0.1	0.8	0.752
C[C@@H]1CN([C@H](C)CO)C(=O)c2cc(C#CC3CCCC3)cnc2O[C@H]1CN(C)S(=O)(=O)c1cccc(F)c1	i	·	·	-1.2	-7.6	1.0	·	1.5	·
COc1ccc(NC(=O)C2CCCN2S(=O)(=O)c2ccc(C)cc2)cc1 (configuration not stated)	·	1.1%	0.4	·	·	·	-1.6	·	0.687
Cc1cccc(C(=O)NCCNC(=O)c2cccc(C)c2)c1	i	1.0%	3.9	-0.8	-2.9	-3.1	-0.9	-1.0	0.673
Cc1cccnc1Nc1nc(-c2ccc(F)cc2)cs1	i	·	1.0	-11.5	-1.7	-0.6	-4.0	2.8	0.682
CCCNC(=O)N(C)C[C@H]1Oc2ncc(-c3ccncc3)cc2C(=O)N([C@H](C)CO)C[C@@H]1C	i	·	·	6.5	1.4	1.4	·	-3.2	·

Not a retest: entries from further up.
SMILES	FGF22 binding	Vif A3G	HNF4A DNA FP	rRNA inh HTS	rRNA inh HTS OD600	rRNA inh HTS RFP	ALR inh	AF4-AF9 inh	E coli growth
CC(C)(OC(=O)NC(=O)C(F)(F)F)C(C)(C)OC(=O)NC(=O)C(F)(F)F	i	13.9%	-3.7	11.6	6.9	3.5	-1.3	1.1	0.754
O=C(Cc1ccccc1)Nc1cc(C(=O)c2ccccc2)ccc1N1CCOCC1	·	2.3%	2.5	·	·	·	0.2	·	0.722
CN(C)S(=O)(=O)c1cccc(NC(=O)COC(=O)CCC(=O)c2ccc(F)cc2)c1	i	7.4%	1.5	-14.1	-15.2	0.8	-4.4	-0.5	0.701
CCOC(=O)c1cccc(NC(=O)/C=C/c2cccc([N+](=O)[O-])c2)c1	·	-3.0%	0.3	·	·	·	-77.4	·	0.75
